Source: PubChem (several laboratories)
HNF4A DNA FP: change in binding of human HNF4 alpha to DNA. HNF4a-FITC DNA binding, fluorescence polarization, 1 h. hit rate 0.3% among 360,000. AID 1224865. activity change, % at 10 µM. P41235; in the data active means activity change above about 30%, passing the limit was not always enough;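 further: controls were the assay level and a saturating level of protein; the project sought stronger binding though the title names inhibitors; some compounds called inactive have numbers as strong as hits; positive values seem to mean higher polarization but the record does not say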
Calb FLC: affects C. albicans growth with fluconazole | C. albicans CaCi-2 (fluconazole-resistant clinical isolate) + fluconazole, Alamar Blue growth, 48 h | growth inhibition, % (concentration not given with the values) | hit rate 0.57% among 300,000;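 active means most replicates above 75%; inconclusive means exactly half above 75%; inactive means most below 75%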;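 further: all wells also contain fluconazole at 8 µg/ml as a sub-toxic cotreatment; 0% = median of DMSO wells and 100% = median of geldanamycin control wells; wells of about 8 µL received 7.5 nL stock; the first replicate is given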
Beta2AR agonist: human beta-2 adrenergic receptor agonism by FAP. P07550. Am2.2-beta2AR cells, FAP receptor internalization, flow cytometry; reference of the scale not given here. response, % (test concentration not listed). hit rate 0.43% among 340,000. AID 504454;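 active means response above a set limit, near 3 SD of response in nonfluorescent compounds, cut at about 42% in these data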;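 further: stock transfer was 100 nL into about 11 µL; a reference agonist was the positive control; negative values mostly stem from fluorescent compounds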
LANA-H2A inh: blocks KSHV LANA binding to histone H2A/H2B; cell-free LANA-H2A/H2B peptide, fluorescence polarization; inhibition, % (test concentration not listed); hit rate 0.6% among 320,000; in the data active means inhibition mostly above about 10%, no sharp cut-off; inactive means mostly below about 6.7%;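 further: stock transfer was 7.5 nL into about 10 µL; 0% = median of vehicle wells and 100% = median of positive control wells; one replicate is shown; the record names a cut of 25% in any replicate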
Target sequence (Q9QR71 whole entry, looked up): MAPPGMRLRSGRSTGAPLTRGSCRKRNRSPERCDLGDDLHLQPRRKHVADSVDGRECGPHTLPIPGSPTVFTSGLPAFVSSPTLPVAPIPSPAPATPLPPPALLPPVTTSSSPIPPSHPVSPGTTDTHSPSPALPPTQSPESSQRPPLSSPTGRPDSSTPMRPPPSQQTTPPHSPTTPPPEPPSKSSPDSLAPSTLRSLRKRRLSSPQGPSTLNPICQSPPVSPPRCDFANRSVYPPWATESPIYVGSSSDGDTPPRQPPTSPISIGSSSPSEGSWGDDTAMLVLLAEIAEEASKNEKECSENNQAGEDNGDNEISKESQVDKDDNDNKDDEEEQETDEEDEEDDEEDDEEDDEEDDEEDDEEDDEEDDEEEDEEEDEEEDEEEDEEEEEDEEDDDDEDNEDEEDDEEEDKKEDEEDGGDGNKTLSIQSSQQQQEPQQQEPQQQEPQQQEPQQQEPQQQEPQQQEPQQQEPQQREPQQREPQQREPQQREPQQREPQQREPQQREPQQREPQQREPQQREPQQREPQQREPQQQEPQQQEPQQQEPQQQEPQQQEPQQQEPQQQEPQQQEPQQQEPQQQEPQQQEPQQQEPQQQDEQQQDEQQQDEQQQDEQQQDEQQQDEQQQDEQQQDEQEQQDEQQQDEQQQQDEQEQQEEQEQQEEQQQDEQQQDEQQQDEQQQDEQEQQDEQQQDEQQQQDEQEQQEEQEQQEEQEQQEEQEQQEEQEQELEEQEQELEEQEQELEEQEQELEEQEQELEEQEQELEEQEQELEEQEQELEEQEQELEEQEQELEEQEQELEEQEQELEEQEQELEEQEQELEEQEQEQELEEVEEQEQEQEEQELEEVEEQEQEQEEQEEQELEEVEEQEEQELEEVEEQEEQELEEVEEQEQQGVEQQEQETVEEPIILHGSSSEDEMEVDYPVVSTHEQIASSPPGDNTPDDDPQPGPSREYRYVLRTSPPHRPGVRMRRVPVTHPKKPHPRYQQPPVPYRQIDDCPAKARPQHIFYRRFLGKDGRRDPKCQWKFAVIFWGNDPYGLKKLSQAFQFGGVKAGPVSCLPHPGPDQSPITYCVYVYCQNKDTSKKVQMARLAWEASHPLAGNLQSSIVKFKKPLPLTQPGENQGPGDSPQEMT
Vif A3G: inhibitors of Vif binding to APOBEC3G peptide, primary screen, biochemical, TR-FRET, GST-Vif 1-94, biotin-A3G peptide, dose response retest (AID 1117319); TR-FRET GST-Vif / biotin-A3G peptide binding; higher % means a stronger effect; test concentration not given here; strong numbers were not always called active; inhibition, %, or IC50 in µM where a hit was titrated; hit rate 0.57% among 260,000;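 active means above the screen mean plus three standard deviations and confirmed in dose response; inconclusive means results disagree or hit not tested in dose response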;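 further: Vif residues 1-94 fused to GST binding biotinylated APOBEC3G peptide 110-148; 0% = full assay without inhibitor and 100% = GST in place of GST-Vif; retest series ran down from 100 µM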
ALR H2O2 inh: blocks human ALR sulfhydryl oxidase activity | P55789 | purified ALR, DTT oxidation, H2O2 HRP-luminol luminescence | inhibition, % (concentration not given with the values) | hit rate 3.8% among 290,000 | AID 485317;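 active means mean and each replicate at 75% or more; inconclusive means only one of the two met; inactive means neither met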;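 further: stock transfer was 7.5 nL into about 7.5 µL; 0% = neutral wells and 100% = wells with inactivated enzyme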
RanGTP-Imp inh: disruptors of Ran-importin-beta complex formation – biochemical, FRET, CFP-Ran, YFP-importin-beta, homogeneous, primary screen; cell-free CFP-Ran/YFP-importin-beta FRET ratio; inhibition, % (concentration not given with the values); hit rate 1.1% among 300,000; AID 2216;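 active means most replicates above 15%; inconclusive means exactly half above 15%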;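 further: 0% = DMSO wells and 100% = Ran loaded with GDP instead of GTP; wells of about 40 µL received 100 nL stock; the first replicate is given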
The depositor's hits bear a star; ? = inconclusive; / = not tested or not shown.

smiles	ALR H2O2 inh	Vif A3G	RanGTP-Imp inh	LANA-H2A inh	Calb FLC	Beta2AR agonist	HNF4A DNA FP
Cc1cc(C(C)(C)C)cc(C)c1COC(=O)c1cccnc1	1	/	-3.2	7.7	-1	-2	-3.0
COc1ccc2c(CCNC(=O)/C=C/c3ccc(OC)c(OC)c3)c[nH]c2c1	-15	-2%	-3.4	1.4	11	4	0.8
C/C(Sc1nnc(Cc2ccccc2)o1)=C(\O)c1ccccc1	/	-6%	/	/	/	-1	0.2
CCNC(=S)N/N=C/c1sccc1C	6	6%	4.7	-3.4	5	/	/
CSc1ccccc1NC(=O)CN(C)C(=O)c1ccc(NC(=O)c2cccs2)cc1	0	/	/	1.7	/	2	-0.6
CC(=O)c1ccc(NC(=O)c2ccc(CSc3ccccc3)o2)cc1	0	/	1.6	-7.4	-4	-2	-0.2
CS(=O)(=O)c1ccc2nc(NC(=O)CN3C(=O)C4CC=CCC4C3=O)sc2c1 (stereo not given)	-4	/	/	7.1	2	11	-1.7
COCCNC(=O)c1cc(-c2ccc3c(c2)OCO3)on1	-9	16%	3.3	1.9	?	9	-2.2
COc1ccc(C2NC(=O)c3ccccc3N2)cc1 (stereo not given)	0	/	3.4	-0.6	-9	-4	-1.4
CC1(C)Cc2c(sc3nnn(Cc4ccccc4)c(=O)c23)CO1	/	/	-0.1	3.8	-20	-6	3.4
CCOC(=O)c1c(C)[nH]c(C(=O)CC(=O)OC)c1C	11	0%	-0.9	-3.5	-2	-3	-3.1
Cn1cc(Cl)c(C(=O)Nc2nccs2)n1	-17	/	2.7	0.3	2	3	-2.7
COc1cc(CCC(=O)Nc2sccc2C#N)cc(OC)c1OC	-6	22%	-1.2	0.7	-1	9	1.0
O=C(CCc1nc2ccccc2s1)OCC(=O)c1ccccc1	-2	/	-1.2	-0.1	-5	11	-3.7
COc1ccc(-n2c(SCC(=O)Nc3cc(C(=O)O)ccc3C)nc3ccccc3c2=O)cc1Cl	9	/	1.5	-1.9	2	-1	-2.3

(list continues)
smiles	ALR H2O2 inh	Vif A3G	RanGTP-Imp inh	LANA-H2A inh	Calb FLC	Beta2AR agonist	HNF4A DNA FP
CC(C)C(NC(=O)CN(c1ccc2c(c1)OCCO2)S(=O)(=O)c1ccccc1)C(C)C	-23	/	-0.7	4.8	-2	2	-0.1
CCn1cc(C(=O)NCCc2ccc(Cl)cc2)c(=O)c2cc(S(=O)(=O)N(C)C)ccc21	/	-3%	1.2	/	22	-13	3.5
CC(C)c1ccc(C(C)NCCS(=O)(=O)c2ccc(Br)cc2)cc1 (stereo not given)	-2	/	-3.7	-1.9	-28	1	2.7
COc1ccc(C(=O)NCc2cccnc2)cc1	-7	-5%	-5.5	-2.5	-15	-1	0.3
Cc1cccc(CS(=O)(=O)Cc2ccc(C(=O)NC3CCCCC3)o2)c1	18	8%	1.2	-1.7	22	4	1.7
O=C(NNC(=O)c1ccccc1F)c1cccc(-n2cccc2)c1	3	8.6µM*	1.0	1.3	2	-4	-34
Cc1cccc(OCc2nnc(SCc3cc(=O)[nH]c4ccccc34)n2-c2ccccc2)c1	-13	0%	-2.8	-0.5	2	-6	-3.1
Cc1noc(C)c1CSCC(=O)Nc1cc(S(C)(=O)=O)ccc1Cl	-52	/	/	1.6	-8	-2	-3.7
COc1ccccc1C(=O)C1Nc2ccccc2-c2nnc(SC)nc2O1 (stereo not given)	13	19%	-2.9	21*	5	-2	-2.6
COc1cccc(C(C(=O)NCC2CCCO2)N(CC2CCCO2)C(=O)CN2C(=O)c3ccccc3S2(=O)=O)c1 (stereo not given)	0	21%	2.1	2.5	-1	-10	0.0
CS(=O)(=O)N1CCN(c2ccc(NC(=O)CSc3ccc(Cl)cc3)cc2)CC1	-5	27%	2.6	-0.3	-3	-4	1.0
Nc1nc(SCc2ccc(Cl)c(Cl)c2)n[nH]1	-15	2%	-0.2	-4.0	-11	8	-1.5
Cc1cc(C)c(NC(=O)c2ccc(CN3CCc4ccccc4C3)cc2)c(C)c1	-6	-4%	0.0	-2.2	0	3	1.4
O=C(Nc1cccc(-n2cccn2)c1)C1CCCN(Cc2cccc(F)c2F)C1 (stereo not given)	1	/	0.8	-0.4	2	-3	-0.4
CC1C(c2ccccc2)N(C)CCC12NC(=O)NC2=O (stereo not given)	0	3%	2.3	1.1	?	6	-0.6

Next records:
smiles	ALR H2O2 inh	Vif A3G	RanGTP-Imp inh	LANA-H2A inh	Calb FLC	Beta2AR agonist	HNF4A DNA FP
COc1ccc2nc(-c3ccccc3)nc(SCC(=O)NCC3CCCO3)c2c1 (stereo not given)	5	/	-6.6	-2.4	0	-6	-2.2
CSc1ccccc1NC(=O)COC(=O)c1ccccc1O	-4	-16%	7.1	-2.8	3	1	-0.9
Cc1cccc(NC(=S)NC2CC3C=CC2C3)c1 (stereo not given)	-1	-11%	0.9	-7.0	-3	-5	-0.4
CC(=O)c1sc(NC(=O)C2CC(=O)N(Cc3ccco3)C2)nc1-c1ccccc1 (stereo not given)	-3	-1%	0.5	1.5	2	-11	3.4
Nc1cc(=O)[nH]c(=O)n1Cc1ccccc1	-18	?	2.4	-2.0	-16	-12	1.4
COCCN1C(=O)c2oc3ccccc3c(=O)c2C1c1ccc(O)c(OC)c1 (stereo not given)	17	5%	-1.6	-0.2	18	-11	-3.4
CC1CCN(C(=O)CSc2nc3ncccc3[nH]2)CC1	-2	/	?	-7.1	24	-10	4.2
O=C(CSCc1cccc(Cl)c1)NCc1ccc2c(c1)OCO2	-6	2%	3.5	8.2	-42	18	-0.8
CCc1ccc(NC(=O)CCS(=O)(=O)c2ccc3c(c2)CCN3C(C)=O)cc1	-2	/	2.3	4.8	3	-16	-5.2
CC1=Nn2c(nnc2-c2cc(C)[nH]n2)SC1	2	22%	-2.6	5.6	-7	5	-1.3
O=C1C2=C(NC(=S)NC2c2ccc(Cl)cc2)NC(c2ccc(Cl)cc2)N1c1ccc(Cl)cc1 (stereo not given)	1	10%	?	-0.5	25	18	3.0
CC(=O)c1ccc(S(=O)(=O)N(CCCO)Cc2cc3cc4c(cc3[nH]c2=O)OCCO4)cc1	-51	1%	-0.7	-6.2	16	9	2.5
Cc1ccc(Oc2ccc(C=O)cn2)cc1	/	6%	-2.1	-0.8	6	-2	2.2
CCc1nc2oc3cc(OC)ccc3c(=O)c2c(=O)n1Cc1ccco1	/	39µM*	/	0.0	/	-4	17
COc1ccc(-c2noc(-c3cccc(OC)c3OC)n2)cc1OC	-10	?	7.2	-0.4	6	-1	-1.4

Further structures
smiles	ALR H2O2 inh	Vif A3G	RanGTP-Imp inh	LANA-H2A inh	Calb FLC	Beta2AR agonist	HNF4A DNA FP
O=C(Nc1ccccc1C(=O)Nc1nnc(C(F)(F)F)s1)c1ccccc1Cl	2	7%	5.7	-3.0	-8	12	-1.9
CC(C)(C)n1nnnc1C(c1ccccn1)N1CCN(C(c2ccccc2)c2ccccc2)CC1 (stereo not given)	-75	2%	-1.1	0.0	-14	5	-0.7
C(=N\Nc1nc(N2CCCC2)nc(N2CCCC2)n1)/c1cccnc1	-4	2%	5.5	-1.9	-8	-9	2.0
CCn1c(CN2CCN(C(=O)c3ccco3)CC2)nc2c1c(=O)n(C)c(=O)n2C	-17	2%	-0.7	1.0	-10	-15	-2.0
CC1=Nc2ccc(C)c3nc(C)cc(c23)N1c1ccc(C)cc1	1	3%	65*	-0.4	2	21	-8.3
COc1ccc(CSc2nnc(-c3ccncc3)n2C)cc1F	-46	-8%	-2.1	-2.7	/	-5	-0.1
Cc1cccc(NC(=O)CNC(=O)CN2C(=O)NC(C)(CCC(C)C)C2=O)c1C (stereo not given)	/	1%	/	/	/	9	-1.2
O=C(OCC(=O)N1CCN(C(=O)c2ccco2)CC1)c1cc(-c2ccccc2)nc2ccccc12	-34	-3%	0.0	3.2	-6	4	-0.8
O=S(=O)(Nc1nc2ccccc2nc1Cl)c1ccc(Br)cc1	45	9%	0.2	1.1	-11	12	-2.5
COc1ccccc1N1CCN(C(=O)c2c(C)cc(=O)oc2C)CC1	11	-2%	-1.9	-5.2	/	0	2.7
CCOC(=O)c1c(C)nc(C)c(C(=O)OCC)c1-c1ccc(Br)cc1	-3	-3%	1.6	-11	2	-18	-1.9
CCOC(=O)c1c(C)[nH]c(C(=O)N(C)CC(=O)Nc2ccc(OC)cc2)c1C	/	/	/	-486	/	-3	-0.5
CN(C)S(=O)(=O)c1ccc(Cl)c(NC(=O)CSc2nc3c(cc2C#N)C(=O)CCC3)c1	4	/	-0.5	-0.3	-6	0	4.1
Cc1ccc(C(=O)O/N=C/c2c(Cl)n(C)c3ccccc23)cc1	-4	-4%	6.7	7.8	-8	0	-0.5
C=C(C)COc1ccc(-c2nc(N)ncc2Oc2ccc(OC)cc2)c(O)c1	/	-53%	6.6	-3.1	2	31	-5.3

Entries of single compounds, quoted from the list:
O=C(OCC(=O)N1CCN(C(=O)c2ccco2)CC1)c1cc(-c2ccccc2)nc2ccccc12 across the screens: ALR H2O2 inh = -34; Vif A3G = -3%; RanGTP-Imp inh = 0.0; LANA-H2A inh = 3.2; Calb FLC = -6; Beta2AR agonist = 4; HNF4A DNA FP = -0.8
C=C(C)COc1ccc(-c2nc(N)ncc2Oc2ccc(OC)cc2)c(O)c1 across the screens: ALR H2O2 inh = /; Vif A3G = -53%; RanGTP-Imp inh = 6.6; LANA-H2A inh = -3.1; Calb FLC = 2; Beta2AR agonist = 31; HNF4A DNA FP = -5.3
CC1=Nc2ccc(C)c3nc(C)cc(c23)N1c1ccc(C)cc1 across the screens: ALR H2O2 inh = 1; Vif A3G = 3%; RanGTP-Imp inh = 65*; LANA-H2A inh = -0.4; Calb FLC = 2; Beta2AR agonist = 21; HNF4A DNA FP = -8.3

Going on with the list.
smiles	ALR H2O2 inh	Vif A3G	RanGTP-Imp inh	LANA-H2A inh	Calb FLC	Beta2AR agonist	HNF4A DNA FP
c1ccc(Cc2nn3c(Cn4nnc5ccccc54)nnc3s2)cc1	-6	6%	-0.6	1.2	-6	3	4.0
COC(=O)C1=NNC2(C)C(=O)N(c3ccc(C)cc3)C(=O)C12 (stereo not given)	1	2%	1.9	-0.7	-3	3	0.0
COc1nnc(-c2ccc(N3CCOCC3)c(NC(C)=O)c2)c2ccccc12	-6	0%	3.8	-4.6	29	-11	0.1
Cc1c(C(=O)O)c(C(=O)O)c2n1CCS2	4	-5%	6.8	3.9	-4	0	3.6
Cc1ccc(OCCn2c(CCCO)nc3ccccc32)cc1	-7	4%	-1.3	2.2	7	-5	1.4
COc1ccc(OC)c(CCNC(=O)CS(=O)(=O)Cc2nc(-c3ccccc3Cl)oc2C)c1	-8	-3%	0.0	-1.5	-5	-4	2.7
C#CCOCCOCCOCCNc1nc(N2CCN(C(=O)CCCCCCCCCCNC(=O)Cn3cc(C[C@@H](C)O)nn3)CC2)nc(N2CCN(C(=O)CCCCCCCCCCNC(=O)Cn3cc(C[C@@H](C)O)nn3)CC2)n1	-23	/	/	2.2	/	15	0.6
Cc1ccc(-c2nsc(SCC(=O)NCc3ccc4c(c3)OCO4)n2)cc1	-9	/	5.3	-2.2	18	-3	-2.6
Cc1cccc(NC(=O)c2ccc(C)c(S(=O)(=O)N3CCOCC3)c2)n1	/	5%	/	/	/	-3	0.9
O=C(NCCCSc1ccccc1)c1cnc(Cl)c(Cl)c1	-10	/	-4.9	1.7	2	-7	1.5
COCCn1c(C)cc(C(=O)CSc2nc3ccccc3o2)c1C	-5	29%	-2.3	1.3	-5	-1	-2.1
Cc1cc(NC(=O)C2CC(=O)N(c3ccc(F)cc3)C2)no1 (stereo not given)	9	/	0.2	-0.2	-15	0	1.6
